Source: PubChem BioAssay (Center for Chemical Genomics, University of Michigan)
CDC25B-CDK2 inh: human CDC25B-CDK2/CyclinA binding inhibition. P30305+P24941. z-score (concentration not given with the values). HTRF CDC25B-CDK2/CyclinA binding, anti-His/anti-Flag; hits give high values. 0.72% of 94,000 active;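 also: score is relative to mean and SD of negative controls; strong numbers were not always called active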
HIV TAR-Tat: HIV-1 TAR-Tat binding disruption; z-score (no concentration beside the values); 0.6% of 100,000 active; HIV-1 TAR RNA, Tat peptide displacement FRET; hits give high values;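 also: score is relative to mean and SD of negative controls; some compounds called inactive have numbers as strong as hits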
An asterisk follows results filed as active; . = not tested or not shown.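 The calls were made as follows: active = z-score from 3 up in half or more of its runs; inactive = the rest.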

Each structure is followed by: HIV TAR-Tat | CDC25B-CDK2 inh
CCC(=O)Oc1cc2c(C(=O)OC(C)C)c(C)oc2cc1Br
    1.2 | 1.8
COc1ccc(CC(=O)N2N=C(c3ccc(Br)cc3)CC2(O)C(F)(F)F)cc1 (stereo not drawn)
    . | 0.07
C=CCOc1ccc(C2CC(=O)Nc3nc(N)[nH]c(=O)c32)cc1OC (stereo not drawn)
    -1.9 | -0.46
COc1ccc(Nc2cnccn2)cc1
    -0.03 | 1.5
CC(=O)N1N=C(c2cccc(Br)c2)OC1c1cccc2ccccc12 (stereo not drawn)
    0.51 | .
Fc1ccc(Nc2nc3ccccc3c3nncn23)cc1Cl
    -0.33 | -0.42
O=C1c2c(O)cc(O)cc2O[C@H](c2ccc(O)c(O)c2)[C@H]1O
    4.3 | .
Clc1ccccc1CNc1nn2nnnc2c2ccccc12
    1 | -4.3
O=c1oc(-c2ccccc2Br)nc2ccccc12
    -0.59 | -0.62
CCCS(=O)(=O)c1nc(S(=O)(=O)c2ccc(C)cc2)c(NCC(C)C)s1
    0.87 | -1.3
O=C(NC(c1ccccc1)c1nnc(-c2ccc(Cl)cc2)o1)c1ccc2c(c1)OCO2 (stereo not drawn)
    1.2 | .
O=C(/C=C/c1cccs1)Nc1ccc(F)cc1
    . | 0.04
CC(=O)Nc1sc(C)c(C)c1SC#N
    2.6 | -2.7
O=C(O)c1ccc2c(c1)C1C3CCC(C3)C1C(c1ccccc1)N2 (stereo not drawn)
    0.85 | -1.1
COc1ccc(OC)c(CNc2nc(-c3ccccc3F)no2)c1
    2.4 | .
CC(C)Cn1cnc2scc(-c3ccccc3)c2c1=O
    -1.2 | -0.84
Cc1ccc2c(c1)OC(C(C)C)CN2 (stereo not drawn)
    0.74 | -1.2
COCCCN1C(=O)C(=O)/C(=C(/O)c2ccc(C)cc2)C1c1ccc(O)c(OC)c1 (stereo not drawn)
    -1 | -1
O=c1c2ccccc2n2c(-c3ccccc3F)nnc2n1Cc1ccc(F)cc1
    1.6 | -1.8
COC(=O)c1c(NC(=O)COc2ccccc2Br)sc2c1C(C(=O)OC)CC2 (stereo not drawn)
    -0.35 | -0.64

The listing continues.
Each structure is followed by: HIV TAR-Tat | CDC25B-CDK2 inh
CCN(CC)CCNS(=O)(=O)c1cccc2nsnc12
    2.7 | 0.84
CCOC(=O)N1CCN(C(=O)Cn2ncn3c(cc4sc(CC)cc43)c2=O)CC1
    -1.4 | 1.4
CN(CC(=O)Nc1ncn[nH]1)S(=O)(=O)c1ccc(Br)cc1
    2.3 | .
COC(=O)C1=C(OC(=O)c2ccc(C)cc2)c2ccccc2S(=O)(=O)N1C
    0.67 | -0.73
Cc1nn(CCCC(=O)NCc2cccnc2)c(=O)c2cc3sccc3n12
    -0.17 | 0.32
Cc1[nH]c2ccccc2c1C(OC(C)C)c1ccccn1 (stereo not drawn)
    0.3 | -1
COc1ccc(-c2nc3c(c(=O)[nH]2)Cc2ccccc2O3)cc1
    1.6 | -2.3
CCOC(=O)Cc1csc(N/N=C\c2c(Cl)ccc(Cl)c2Cl)n1
    . | -1.1
CCc1ccc(NS(=O)(=O)c2ccc3c(c2)C(=O)NC3)cc1
    1 | .
CC(C)CCNC(=O)C1(C)CCC(=O)N1CCCOC(C)C (stereo not drawn)
    1.2 | -0.36
C(#Cc1ccccc1)CN1CCN(C/C=C/c2ccccc2)CC1
    -0.41 | -0.35
Clc1ccccc1OCc1nc(-c2cccnc2)no1
    0.86 | -0.49
Cc1cc(C(=O)NCc2ccc(C)o2)n[nH]1
    -0.37 | .
CN(Cc1ccccc1)C(=O)c1nn2c(C(F)(F)F)cc(-c3ccccc3)nc2c1Cl
    1.3 | .
CCCN1CCN(C(=O)CCc2nnc3ccc(NCc4ccco4)nn23)CC1
    1.7 | .
CC(=O)N1CCc2cc(S(=O)(=O)CCC(=O)Nc3ccc(F)cc3Cl)ccc21
    0.78 | .
CCOC(=O)C(Nc1cccc(F)c1)(NS(=O)(=O)c1ccc(C)cc1)C(F)(F)F (stereo not drawn)
    . | -1
COc1cc(C=NCCCN=Cc2cc(OC)c(OC)c(OC)c2)cc(OC)c1OC
    . | -1.9
CCCCSc1nc2c(c(=O)[nH]1)C(c1cccs1)C(C(=O)OC)=C(C)N2 (stereo not drawn)
    2.8 | -2.2
O=C(O)CCCC(=O)NC1=NCCS1
    0.68 | -0.48

Other records follow.
Each structure is followed by: HIV TAR-Tat | CDC25B-CDK2 inh
O=C1CCN2c3ccc(S(=O)(=O)N4CCCC4)cc3NN2O1
    -0.26 | .
O=C(C1CCCN(c2ncnc3c2nc2n3CCCCC2)C1)N1CCCC1 (stereo not drawn)
    -0.94 | .
CN(CCCNc1nc2ccccc2c2nc(-c3cccnc3)nn12)Cc1ccccc1
    -0.26 | -0.04
CCCc1cc(Sc2ccccc2N)n2ncnc2n1
    -8.3 | .
CSc1nn2c(C(F)(F)F)cc(C(F)(F)F)nc2c1C#N
    . | -0.51
CCC(=O)N1c2ccc(S(=O)(=O)Nc3ccc(F)cc3)cc2CC1C (stereo not drawn)
    3.6 | .
COc1ccccc1-c1nnc2sc(-c3cccs3)nn12
    1.7 | 0.22
COc1ccc(-c2nc(NCCN(Cc3ccco3)C3CCCC3)c3ccccc3n2)cc1
    0.85 | .
C=CCNc1nc(NCc2ccccc2OC)c2cnn(C)c2n1
    0.68 | .
O=C(NC1CCCC1)c1ccc2c(=O)nc3c(-c4ccccc4)n[nH]n3c2c1
    2 | .
COCCCN1C(=O)C(=O)/C(=C(\O)c2ccc3c(c2)CC(C)O3)C12C(=O)N(C)c1ccccc12 (stereo not drawn)
    1.4 | -0.59
CCN1C(SCc2ccccc2F)=NS(=O)(=O)c2ccccc21
    0.86 | .
Cn1c(=O)c2sccc2n2c(CCCC(=O)N3CCOCC3)nnc12
    0.62 | .
O=S(=O)(c1ccc(-n2cccn2)cc1)N1CCN(C2CCCCC2)CC1
    0.45 | .
Cc1nc2c(-c3ccc(F)cc3)c(C)nn2c(C)c1CCC(=O)NC(C)c1ccc2c(c1)OCCO2 (stereo not drawn)
    1.1 | -0.59
OC1(c2cc(C(F)(F)F)cc(C(F)(F)F)c2)CC1
    . | 0.32
Cc1ccc(-n2ncc3c(N4CCN(c5ccc(F)cc5)CC4)ncnc32)cc1
    0.41 | .
O=C(c1cc(-c2ccccn2)n[nH]1)N1CCN(C(=O)c2ccco2)CC1
    1.5 | .
Fc1ccc(CNc2ccc3nncn3n2)cc1
    1.9 | -1.1
CCOC(=O)N1CCC(Nc2nc3ccccc3n3c(CC)nnc23)CC1
    0.25 | .

Record cards (already shown). Values in the order: HIV TAR-Tat	CDC25B-CDK2 inh
O=C(c1cc(-c2ccccn2)n[nH]1)N1CCN(C(=O)c2ccco2)CC1 is listed as 1.5	.
O=C(NC1CCCC1)c1ccc2c(=O)nc3c(-c4ccccc4)n[nH]n3c2c1 is listed as 2	.
Cc1ccc(-n2ncc3c(N4CCN(c5ccc(F)cc5)CC4)ncnc32)cc1 is listed as 0.41	.
COc1ccccc1-c1nnc2sc(-c3cccs3)nn12 is listed as 1.7	0.22

Following part
Each structure is followed by: HIV TAR-Tat | CDC25B-CDK2 inh
O=C(Nc1ccc2oc(-c3ccccc3F)nc2c1)c1cc2ccccc2o1
    . | -0.74
CCCOC(=O)C1=C(C)NC2=C(C(=O)CC(c3ccc(Cl)cc3)C2)C1c1ccc(O)cc1 (stereo not drawn)
    0.05 | -2.3
Cc1c(Br)c([N+](=O)[O-])nn1CC(=O)O
    0.88 | .
CCS(=O)(=O)c1ccc2c(c1)N(CC(=O)O)C(=O)CO2
    1.6 | -2.7
Cc1ccc(N2CCN(C(=O)c3ccc4c(c3)NC(=O)c3ccccc3S4)CC2C)cc1 (stereo not drawn)
    . | -0.54
Cc1nc(N)nc(C(F)(F)F)c1Br
    0.23 | -0.1
CCOC(=O)c1nnc2c3c(-c4ccccc4)c(-c4ccccc4)nnc3nn2c1C
    . | -1.4
Fc1ccc(-c2noc3ncnc(NCc4ccco4)c23)cc1
    -1.7 | .
CN1CCN(CCNC(=O)CN2C(=O)CCn3nc(-c4cn(C)c5ccccc45)cc32)CC1
    1.4 | .
COc1ccc(N2CCN(C(=O)NC3CCOCC3)CC2)cc1
    -1.2 | -1.6
CCc1cccc(Nc2nc3ccccc3c3nncn23)c1
    1.9 | -0.6
O=C(Nc1cccc(Cl)c1)N1CCCC1c1cccs1 (stereo not drawn)
    0.49 | -1.8
CCOC(=O)c1c(C)oc2nc(C)nc(NCCCN3CCCC3=O)c12
    0.81 | .
CC(C)NC(=O)CC1Sc2ccc(C(F)(F)F)cc2NC1=O (stereo not drawn)
    . | -2
COc1ccccc1CN1COc2ccc3c(oc(=O)c4ccccc43)c2C1
    -1.5 | 0.25
CCN1C(=O)C(O)(CC(=O)c2cccc(N)c2)c2ccccc21 (stereo not drawn)
    -0.11 | -0.65
Cc1nnc(NC(=O)c2nn(-c3cccc(Cl)c3)ccc2=O)s1
    -0.2 | -1.5
CC1CCCCC1NC(=O)c1ccc(NC2=NC3CS(=O)(=O)CC3S2)cc1 (stereo not drawn)
    3.2 | .
CCOc1cc(C(=O)Nc2c3c(nn2C(C)(C)C)CS(=O)(=O)C3)cc(OCC)c1OCC
    . | -2.4
O=C1C(=O)N(c2ccccn2)C(c2ccc(F)cc2)/C1=C(\O)c1ccc(Br)cc1 (stereo not drawn)
    -0.89 | -0.98

Next section
Each structure is followed by: HIV TAR-Tat | CDC25B-CDK2 inh
Cc1nnc2c3ccccc3nc(Nc3ccc(Br)cc3F)n12
    -0.03 | -0.66
CSc1ncc(C(=O)Nc2ccc(Cl)cc2C)c(C(F)(F)F)n1
    1.3 | .
Cc1cc2n(n1)CCC(=O)N2CCCC(=O)NC1CCCCC1
    0.52 | .
CC1CCc2c(sc3nnn(CC(=O)Nc4ccc(N(C)C)cc4)c(=O)c23)C1 (stereo not drawn)
    2.3 | -0.91
CC(=O)N1c2ccccc2C(=O)C1N(Cc1ccccc1)C(C)(C)C (stereo not drawn)
    -0.04 | .
Cc1ccc(Cn2c(C)nc3cc(C)c(C)cc32)cc1
    1.1 | -0.78
CN(C)c1ccc(C2N(Cc3ccccc3)CCC3CCCCN32)cc1 (stereo not drawn)
    . | 0.09
Cc1sc2c(c1C)CSC(C(=O)Nc1ccccc1F)=C2
    1.7 | .
Cc1cc2c(nc1C)sc1c(=O)n(CCc3ccccc3)nnc12
    1.1 | 0.28
CCN1CCCC1CNC(=O)c1sc2nc3n(c(=O)c2c1C)CCCCC3 (stereo not drawn)
    2.4 | .
C=CCNc1nc(NCCc2cccs2)c2cnn(C)c2n1
    1.6 | .
O=C(CCc1nnc2ccc(N3CCCCC3)nn12)Nc1cc(F)ccc1F
    -0.14 | .
COc1ccc(Br)cc1C1C2=C(Nc3c1c(=O)[nH]c(=O)n3C)c1ccccc1C2=O (stereo not drawn)
    0.39 | -0.86
Oc1ccc2ncccc2c1C(Nc1ccccn1)c1ccco1 (stereo not drawn)
    -5.7 | 4.5
CC(C)(O)C1Cc2cc(C3=C(O)/C(=C/c4ccc5c(c4)C[C@H](C(C)(C)O)O5)OC3=O)c(O)cc2O1 (stereo partly drawn)
    1.4 | .
Cc1ccc(-n2c(=O)c3c4c(sc3n(Cc3cc(=O)n5ccccc5n3)c2=O)CCC4)cc1C
    . | -0.15
O=C(Nc1cccc(Br)c1)c1c(O)c2cccc3c2n(c1=O)CC3
    2.2 | .
Cn1c(=O)c2c(nc(CN3CCN(c4cccc(Cl)c4)CC3)n2CC(N)=O)n(C)c1=O
    0.18 | -1.8
COc1cc(OC)c(NS(=O)(=O)c2cc3[nH]c4c(c3cc2C)C(=O)CC(C)(C)C4)cc1Cl
    0.61 | .
O=C1c2ccccc2C(=O)N1CCCN1CCN(Cc2c(F)cccc2Cl)CC1
    . | -1.3

(continued)
Each structure is followed by: HIV TAR-Tat | CDC25B-CDK2 inh
CCOC(=O)c1cc(C)nc2ccc(Br)cc12
    . | 0.05
O=C(CCc1nnc2ccc(N3CCCCC3)nn12)NCC1CCCO1 (stereo not drawn)
    -0.1 | .
COc1ccc(OC)c(NC(=O)Nc2ccc(Cl)cc2Cl)c1
    . | -0.36
CCOC(=O)c1c(NC(=O)c2cccs2)sc(C(=O)N2CCCCC2)c1C
    -0.11 | -0.33
CCc1cccc2c(=O)c(C(=O)O)c[nH]c12
    -0.45 | 1.4
O=C(c1ccc(S(=O)(=O)NC2CCCCC2)s1)N1CCCC1
    0.91 | .
COc1ccc(-c2noc(-c3cccc(OC)c3OC)n2)cc1
    1.8 | -2
Cc1ccccc1C(=O)OCc1cc(=O)n2c(C)csc2n1
    0.45 | .
Cn1nc(C(=O)NCCN(Cc2ccco2)C2CCCC2)c2c1-c1ccccc1S(=O)(=O)C2
    0.51 | -1.6
CCCc1nnc(NC(=O)Cc2coc3cc(C)cc(C)c23)s1
    0.9 | 0.42
CCOC(=O)c1cnc(SCc2nc(-c3ccc(OC)cc3)oc2C)nc1N
    1.3 | .
O=C(NCc1cccnc1)c1nn2c(C(F)(F)F)cc(-c3ccccc3)nc2c1Br
    1 | -1.5
O=S(=O)(c1ccccc1)c1nc(S(=O)(=O)c2ccc(Cl)cc2)c(N2CCOCC2)s1
    1.6 | -1.7
COC(=O)c1ccc(C2CC(=O)Nc3c2cc(Br)c2ccccc32)cc1 (stereo not drawn)
    0.74 | 0.51
CCc1nnc(SCC(=O)Nc2cc(Cl)c(OC)cc2OC)c2cc3oc(C)cc3n12
    3 | .
O=S(=O)(Cc1cc2c(F)c(F)c(F)c(F)c2o1)c1cccc(C(F)(F)F)c1
    . | -1.2
Nc1ccc2nc(SCc3ccc(Br)cc3)sc2c1
    1.4 | -2.9

As entered above.
CDC25B-CDK2 inh, Cc1cc2c(nc1C)sc1c(=O)n(CCc3ccccc3)nnc12 stands at 0.28
HIV TAR-Tat, Cn1c(=O)c2sccc2n2c(CCCC(=O)N3CCOCC3)nnc12 stands at 0.62
CDC25B-CDK2 inh, O=c1c2ccccc2n2c(-c3ccccc3F)nnc2n1Cc1ccc(F)cc1 stands at -1.8
HIV TAR-Tat, CCN1C(SCc2ccccc2F)=NS(=O)(=O)c2ccccc21 stands at 0.86
HIV TAR-Tat, CSc1ncc(C(=O)Nc2ccc(Cl)cc2C)c(C(F)(F)F)n1 stands at 1.3
